Compound activity from PubChem.
FGF22 binding = FGF22 (human) thermal shift binding | Q9HCT0 | recombinant FGF22 thermal shift, SYPRO orange fluorescence; percent of sucrose octasulfate shift, DMSO zero | calls only at 9.99 µM | 340,000 tested, 1.5% active | AID 651658;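 active = melting point raised past a set limit in the mean and every replicate; three in four hits are not shown here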
Target sequence (Q9HCT0 whole entry, looked up): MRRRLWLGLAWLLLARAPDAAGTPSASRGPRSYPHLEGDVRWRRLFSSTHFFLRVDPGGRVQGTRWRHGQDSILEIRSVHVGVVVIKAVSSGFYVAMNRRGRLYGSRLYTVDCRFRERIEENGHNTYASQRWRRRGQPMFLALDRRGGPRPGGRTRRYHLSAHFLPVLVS
Ecoli rRNA inh = inhibitors of bacterial rRNA selective over humanized ribosomes. E. coli WT GFP vs humanized-ribosome RFP mutants, fluorescence, 24 h; hits give low values; DMSO median 0, no signal -100. 350,000 tested, 1.6% active. GFP signal change (wild-type ribosome), % (concentration not given with the values). AID 720706;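 active = significant combined selectivity score with lowered wild-type GFP, culture density cut under 30%, mutant RFP and density less affected; inactive = any of these conditions unmet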; note: one replicate is shown; some compounds called inactive have numbers as strong as hits
Ecoli rRNA inh OD600 = recorded beside Ecoli rRNA inh, whose call it bears; OD600 change, %; measured here: OD600 growth;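 optical density of the mix in the first replicate; 0 = DMSO median and -100 = no signal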
Ecoli rRNA inh RFP = further read-out of Ecoli rRNA inh, marked with its call; RFP signal change, %; measured here: RFP humanized mutant strains;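 first replicate; 0 = DMSO median and -100 = no signal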
Numbers without * were called inactive; i = inactive; + = active, no number; & = joins results of further samples. Some of the compounds tested; the hit share may differ from the screen's.

Ecoli rRNA inh OD600	Ecoli rRNA inh RFP	Ecoli rRNA inh	FGF22 binding	SMILES
-6	-2.9	-2	i	C[C@@H]1CCCCO[C@H](CN(C)C(=O)NC2CCCCC2)[C@@H](C)CN([C@@H](C)CO)C(=O)c2cc(NS(=O)(=O)c3cn(C)cn3)ccc2O1
-64	6.9	-22	i	COc1cc(CN2CC3(CCN(S(=O)(=O)c4cccs4)CC3)c3c(n(C)c4cc(OC)ccc34)[C@H]2CO)cc(OC)c1
5	-1.0	1	i	O=C(C[C@@H]1CC[C@@H](NC(=O)c2ccccc2)[C@H](CO)O1)NCc1ccncn1
11	1.9	3	i	CC(C)NC(=O)N[C@H]1C=C[C@@H](CC(=O)NC2Cc3ccccc3C2)O[C@@H]1CO
12	0.1	1	i	C[C@@H]1CN([C@@H](C)CO)C(=O)Cc2cc(NS(=O)(=O)c3cn(C)cn3)ccc2O[C@@H]1CN(C)Cc1ccc(C(=O)Nc2ccccc2N)cc1
13	-0.9	1	i	COc1ccc(CN(C)C[C@@H]2Oc3ccc(NC(=O)Cn4cnnn4)cc3C(=O)N([C@@H](C)CO)C[C@H]2C)cc1
-13	1.6	-2	i	COc1ccccc1CN1CC[C@@H]2[C@@H](CO)Nc3ccc(-c4ccc(C(=O)N(C)C)cc4)cc3[C@@H]21
0	-0.9	1	i	C[C@@H]1CN([C@H](C)CO)C(=O)CCCn2cc(nn2)CO[C@@H]1CN(C)S(=O)(=O)c1ccc2c(c1)OCCCO2
-5	-0.1	-3	i	C[C@H]1CN([C@@H](C)CO)C(=O)Cc2cc(NC(=O)CCCCCC(=O)Nc3ccccc3N)ccc2O[C@H]1CN(C)Cc1ccc2c(c1)OCO2
-73	-16	-53	i	C[C@@H]1CN([C@H](C)CO)S(=O)(=O)c2ccc(-c3ccccc3)cc2O[C@H]1CN(C)Cc1cccnc1
2	3.3	3	i	O=C(C[C@H]1CC[C@H]2[C@@H](COC[C@H](O)CN2C(=O)c2ccccc2F)O1)N1CCCCC1
-3	-5.9	-1	i	CC(C)NC(=O)N(C)C[C@H]1Oc2ccc(NC(=O)CCN3CCOCC3)cc2C(=O)N([C@@H](C)CO)C[C@H]1C

Reprinted at random: 3 records from the list.
Ecoli rRNA inh OD600	Ecoli rRNA inh RFP	Ecoli rRNA inh	FGF22 binding	SMILES
-73	-16	-53	i	C[C@@H]1CN([C@H](C)CO)S(=O)(=O)c2ccc(-c3ccccc3)cc2O[C@H]1CN(C)Cc1cccnc1
-6	-2.9	-2	i	C[C@@H]1CCCCO[C@H](CN(C)C(=O)NC2CCCCC2)[C@@H](C)CN([C@@H](C)CO)C(=O)c2cc(NS(=O)(=O)c3cn(C)cn3)ccc2O1
-64	6.9	-22	i	COc1cc(CN2CC3(CCN(S(=O)(=O)c4cccs4)CC3)c3c(n(C)c4cc(OC)ccc34)[C@H]2CO)cc(OC)c1

Continuation.
Ecoli rRNA inh OD600	Ecoli rRNA inh RFP	Ecoli rRNA inh	FGF22 binding	SMILES
-10	-0.5	-4	i	C[C@@H]1CN([C@H](C)CO)C(=O)c2cccc(NS(=O)(=O)c3ccc(Cl)cc3)c2O[C@H]1CN(C)C(=O)Nc1ccc(C(F)(F)F)cc1
9	1.5	4	i	COc1ccc(S(=O)(=O)Nc2cccc3c2O[C@H](CN(C)C)[C@@H](C)CN([C@@H](C)CO)C3=O)cc1
1	-2.6	0	i	O=C(C[C@@H]1C[C@@H]2c3cc(NC(=O)Cc4ccncc4)ccc3O[C@@H]2[C@@H](CO)O1)NCc1ccccc1
6	0.4	3	i	COc1ccc(NC(=O)Nc2ccc3c(c2)C(=O)N([C@H](C)CO)C[C@@H](C)[C@@H](CN(C)C(=O)CCCN(C)C)OCCCC[C@@H](C)O3)cc1
-2	1.2	2	i	C[C@@H]1CN([C@H](C)CO)C(=O)c2cc(NC(=O)CCN3CCOCC3)ccc2O[C@H]1CN(C)C
-8&-79	4.5&-19	-7&-57	i	COc1ccccc1-c1ccc(C2[C@@H]3CN(S(=O)(=O)c4ccc(C)cc4)C[C@H]2N3)cc1 (stereo partly drawn)
0	2.2	-4	i	C[C@@H]1CCCCO[C@H](CN(C)C(=O)Nc2ccc(F)cc2)[C@@H](C)CN([C@@H](C)CO)C(=O)c2cc(NC(=O)c3ccccc3)ccc2O1
-1	3.1	0	i	CO[C@@H]1CN(C)C(=O)c2cc(NC(=O)NC(C)C)ccc2OC[C@@H](C)N(CC2CC2)C[C@@H]1C
3	-1.3	0	i	O=C(NC[C@H]1[C@@H](c2ccccc2)[C@H](CO)N1Cc1cccnc1)c1ccccn1
3	-1.5	2	i	COc1ccc(NC(=O)N(C)C[C@@H]2Oc3c(NC(=O)c4ccncc4)cccc3C(=O)N([C@H](C)CO)C[C@H]2C)cc1
4	1.1	6	i	O=C(C[C@@H]1CC[C@H](NC(=O)C2CCC2)[C@@H](CO)O1)NCc1ccncc1
6	2.0	2	i	COCCNC(=O)C[C@@H]1CC[C@@H](NS(=O)(=O)c2ccc(C)cc2)[C@H](CO)O1
-7	-0.3	-2	i	Cc1noc(C)c1S(=O)(=O)N(C)C[C@@H]1OCCCC[C@@H](C)Oc2ccc(N(C)C)cc2C(=O)N([C@@H](C)CO)C[C@H]1C
8	-1.2	1	i	CC(C)CC#Cc1ccc2c(c1)O[C@H](CN(C)S(=O)(=O)c1cccc(F)c1)[C@H](C)CN([C@@H](C)CO)S2(=O)=O
11	-0.1	3	i	C[C@@H](O)C#Cc1ccc([C@H]2[C@H](CO)N3CCCCN(S(=O)(=O)c4ccccc4)C[C@@H]23)cc1
7	2.0	0	i	C[C@H]1CN([C@@H](C)CO)C(=O)c2cc(NS(=O)(=O)c3ccc(F)cc3)ccc2O[C@H]1CN(C)C(=O)Nc1ccc(F)cc1
8	-3.8	3	i	CC(C)NC(=O)Nc1ccc2c(c1)C(=O)N([C@H](C)CO)C[C@@H](C)[C@@H](CN(C)Cc1ccccc1)O2
18	-1.8	3	+	CCCN(C)C[C@@H]1OCCCC[C@@H](C)Oc2ccc(NC(=O)NC(C)C)cc2C(=O)N([C@@H](C)CO)C[C@@H]1C
3	2.8	-1	i	CO[C@H]1CN(C)C(=O)c2ccc(NC(=O)c3ccc4c(c3)OCO4)cc2OC[C@@H](C)NC[C@@H]1C
12	-2.0	5	i	CN(C)CC#Cc1ccc([C@H]2[C@@H](CO)N3CCCCN(C(=O)c4ccc5c(c4)OCO5)C[C@@H]23)cc1
0	0.6	-3	i	CCCNC(=O)Nc1ccc2c(c1)OC[C@H](C)N(C(=O)C1CCC1)C[C@H](C)[C@H](OC)CN(C)C2=O
0	-1.5	1	i	CC=Cc1ccc2n(c1=O)C[C@H]1[C@H](CO)[C@@H](C(=O)NCC3CC3)N(Cc3nccs3)[C@@H]21 (mixture of isomers)
2	0.9	-4	i	COc1ccc(S(=O)(=O)N(C)C[C@H]2Oc3c(NS(=O)(=O)c4ccccc4)cccc3C(=O)N([C@@H](C)CO)C[C@@H]2C)cc1
-13	-2.6	-2	i	CC(C)NC(=O)N(C)C[C@H]1Oc2cc(C#Cc3ccccn3)ccc2S(=O)(=O)N([C@@H](C)CO)C[C@@H]1C
1	-1.0	2	i	COc1ccccc1CNC(=O)C[C@H]1C=C[C@H](NC(=O)CN(C)C)[C@@H](CO)O1
-9	6.2	-5	i	CO[C@@H](CN(C)S(=O)(=O)c1cccc(Cl)c1)[C@@H](C)CN(C(=O)Nc1ccccc1F)[C@@H](C)CO
1	2.9	-8	i	C[C@@H]1CCCCO[C@H](CN(C)C(=O)Cc2ccccc2)[C@H](C)CN([C@H](C)CO)C(=O)c2cc(NC(=O)c3ccccc3)ccc2O1
-7	7.2	-3	i	C[C@@H]1CN([C@@H](C)CO)C(=O)Cc2cc(NC(=O)Nc3cccc4ccccc34)ccc2O[C@H]1CN(C)CC1CCCCC1
-7	1.6	-4	i	CN1C(=O)c2cc(NC(=O)C3CC3)ccc2OC[C@H]2O[C@@H](CC(=O)NCC3CCCCC3)CC[C@@H]21
-5	-2.4	-2	i	C/C=C/c1ccc2c(c1)O[C@@H](CN(C)C(=O)C1CCOCC1)[C@H](C)CN([C@H](C)CO)S2(=O)=O
-1	-1.8	2	i	C[C@@H]1CCCCO[C@@H](CN(C)S(=O)(=O)c2cccs2)[C@@H](C)CN([C@H](C)CO)C(=O)c2cc(NC(=O)c3ccccc3)ccc2O1
8	0.3	-3	i	C[C@H](CO)N1C[C@H](C)[C@@H](CN(C)C(=O)Cc2ccccc2)OCCCC[C@H](C)Oc2ccc(NC(=O)c3ccccc3)cc2C1=O
10	8.4	17	i	CCCCCCCCN1C(=O)[C@@H](CC(=O)NCC2CCCCC2)C[C@@]2(C(=O)OC)C1=C[C@H](C(C)(C)C)O[C@@H]2C
-75	-14	-40	i	Cc1ccc2nc(-c3cccc(Cl)c3)c(Cc3ccsc3)n2c1
1	-0.9	2	i	Cn1cnc(S(=O)(=O)N[C@H]2CC[C@@H](CC(=O)N3CCN(c4ccccc4)CC3)O[C@H]2CO)c1
-52	-13	-55	i	Cc1ccccc1S(=O)(=O)N1CCCCN2[C@H](CO)[C@H](c3ccc(-c4cccc(F)c4)cc3)[C@H]2C1

Already shown: entries from further up.
Ecoli rRNA inh OD600	Ecoli rRNA inh RFP	Ecoli rRNA inh	FGF22 binding	SMILES
1	-1.0	2	i	COc1ccccc1CNC(=O)C[C@H]1C=C[C@H](NC(=O)CN(C)C)[C@@H](CO)O1
-9	6.2	-5	i	CO[C@@H](CN(C)S(=O)(=O)c1cccc(Cl)c1)[C@@H](C)CN(C(=O)Nc1ccccc1F)[C@@H](C)CO
1	2.9	-8	i	C[C@@H]1CCCCO[C@H](CN(C)C(=O)Cc2ccccc2)[C@H](C)CN([C@H](C)CO)C(=O)c2cc(NC(=O)c3ccccc3)ccc2O1
-7	7.2	-3	i	C[C@@H]1CN([C@@H](C)CO)C(=O)Cc2cc(NC(=O)Nc3cccc4ccccc34)ccc2O[C@H]1CN(C)CC1CCCCC1
-7	1.6	-4	i	CN1C(=O)c2cc(NC(=O)C3CC3)ccc2OC[C@H]2O[C@@H](CC(=O)NCC3CCCCC3)CC[C@@H]21

Going on with the list:
Ecoli rRNA inh OD600	Ecoli rRNA inh RFP	Ecoli rRNA inh	FGF22 binding	SMILES
-15	2.6	-5	i	CCS(=O)(=O)N1CCCCN2[C@H](CO)[C@H](c3ccc(-c4ccccc4F)cc3)[C@@H]2C1
2	-3.5	2	i	Cc1noc(C)c1S(=O)(=O)Nc1ccc2c(c1)CC(=O)N([C@@H](C)CO)C[C@@H](C)[C@@H](CN(C)C(=O)NC(C)C)O2
8	-2.9	3	i	CNC[C@H]1Oc2c(NC(=O)Nc3ccc(F)cc3)cccc2C(=O)N([C@H](C)CO)C[C@H]1C
4	-1.4	-12	i	OC[C@H]1[C@H](c2ccc(-c3ccccc3F)cc2)[C@@H]2CN(Cc3ccncc3)CCCCN12
-3	-0.2	-2	i	CO[C@@H]1CN(C)C(=O)c2cc(NC(=O)C3CCC3)ccc2OC[C@H](C)N(Cc2ccncc2)C[C@H]1C
-11	6.3	-5	i	CO[C@@H]1CN(C)C(=O)c2ccc(NC(=O)c3nc4ccccc4s3)cc2OC[C@@H](C)NC[C@H]1C
7	-4.5	2	i	O=C(NCCN1CCCCC1)[C@@H]1N[C@@H]2c3ccc(-c4ccncc4)c(=O)n3C[C@@H]2[C@H]1CO
1	-1.4	5	i	CN1C(=O)c2cc(NC(=O)C3CCOCC3)ccc2OC[C@@H]2O[C@@H](CC(=O)NC3CCCC3)CC[C@@H]21
5	-0.8	2	i	CO[C@@H]1CN(C)C(=O)c2cc(NS(C)(=O)=O)ccc2OC[C@H](C)N(C(=O)C2CCCC2)C[C@@H]1C
10	2.8	5	i	C[C@@H]1CN([C@@H](C)CO)C(=O)c2cccc(NC(=O)c3ccncc3)c2O[C@@H]1CN(C)C(=O)Nc1cccc2ccccc12
-10	-3.0	-6	i	COc1ccc(NC(=O)Nc2ccc3c(c2)C(=O)N([C@@H](C)CO)C[C@@H](C)[C@@H](CN(C)C(=O)CCC(F)(F)F)OCCCC[C@@H](C)O3)cc1
-4	2.1	0	i	COc1ccc(NC(=O)Nc2ccc3c(c2)C(=O)N([C@H](C)CO)C[C@H](C)[C@@H](CN(C)C(=O)Cc2ccccc2)OCCCC[C@H](C)O3)cc1
4	0.3	-1	i	O=C(Nc1cc(F)ccc1F)N[C@H]1C=C[C@H](CC(=O)N2CCc3ccccc3C2)O[C@H]1CO
-17	13	-4	i	COc1ccc(CN(C)C[C@H]2OCCCC[C@@H](C)Oc3ccc(NC(=O)Nc4cccc5ccccc45)cc3C(=O)N([C@@H](C)CO)C[C@@H]2C)cc1
-10	1.7	-4	i	C[C@H]1CCCCO[C@@H](CN(C)Cc2ccc(C(=O)O)cc2)[C@@H](C)CN([C@@H](C)CO)C(=O)c2cc(NC(=O)Nc3ccc(C(F)(F)F)cc3)ccc2O1
-21*	8.9*	-18*	i	COC(=O)c1cc2c(c3c4cc(F)ccc4n(S(=O)(=O)c4ccccc4)c13)C(=O)N(Cc1ccco1)C2
10	-4.4	2	i	CCC(=O)N1CCC2(CC1)CN(C(=O)c1ccccn1)[C@H](CO)c1c2c2ccc(OC)cc2n1C
